Screening data deposited in PubChem by Broad Institute.
ID4 SMM – ID4 (human) binding; small molecule microarray, Flag-ID4 binding, fluorescence F/B; calls only; actives 1.2% (n = 31,000);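 active = spot signal over background at p below 0.07 in all four prints; compounds were printed on slides so no solution concentration is given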;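 note: a binder raises fluorescence above local background on the spot; about 2 pmol printed per array spot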
Target sequence (P47928 whole entry, looked up): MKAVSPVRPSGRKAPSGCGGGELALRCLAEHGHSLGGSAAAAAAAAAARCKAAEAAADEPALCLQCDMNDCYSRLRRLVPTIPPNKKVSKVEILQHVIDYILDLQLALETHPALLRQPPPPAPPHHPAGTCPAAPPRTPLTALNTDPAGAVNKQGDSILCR
Calls only; i = inactive; + = active, no number.

| mol | ID4 SMM |
| --- | --- |
| O=C(CC1(O)C(=O)N(Cc2cccc3ccccc23)c2ccccc21)c1ccco1 (stereo not drawn) | i |
| Cc1ccc(-c2noc(CCC(=O)Nc3cccc([N+](=O)[O-])c3)n2)cc1 | i |
| COc1ccc(C)cc1N(CC(=O)Nc1c(C)n(C)n(-c2ccccc2)c1=O)S(C)(=O)=O | i |
| CC(C)C#Cc1cnc2c(c1)C(=O)N([C@@H](C)CO)C[C@@H](C)[C@@H](CN(C)C(=O)c1ccccc1F)O2 | i |
| CCC(Sc1nncn1C)C(=O)Nc1ccc(-c2nc3ccc(C)cc3s2)cc1 (stereo not drawn) | i |
| Cc1ccccc1-c1cnc2c(c1)C(=O)N([C@@H](C)CO)C[C@@H](C)[C@@H](CN(C)CC1CCOCC1)O2 | i |
| O=C(NCc1ccco1)c1cncc(Br)c1 | i |
| COc1ccc(Cl)cc1C(=O)NCCc1ccc(S(=O)(=O)NC(=O)NC2CCCCC2)cc1 | i |
| CNC[C@H]1Oc2ncc(C#CCC(C)C)cc2C(=O)N([C@H](C)CO)C[C@H]1C | i |
| COc1ccccc1S(=O)(=O)N[C@H]1C=C[C@H](CC(=O)NCc2cccc(F)c2)O[C@@H]1CO | i |

Given field by field: 3 of the compounds above
CNC[C@H]1Oc2ncc(C#CCC(C)C)cc2C(=O)N([C@H](C)CO)C[C@H]1C
  ID4 SMM = i
CC(C)C#Cc1cnc2c(c1)C(=O)N([C@@H](C)CO)C[C@@H](C)[C@@H](CN(C)C(=O)c1ccccc1F)O2
  ID4 SMM = i
Cc1ccc(-c2noc(CCC(=O)Nc3cccc([N+](=O)[O-])c3)n2)cc1
  ID4 SMM = i

(listing goes on)
| mol | ID4 SMM |
| --- | --- |
| CC(C)NC(=O)N[C@@H]1C=C[C@@H](CC(=O)NC2Cc3ccccc3C2)O[C@@H]1CO | i |
| COc1ccccc1-c1ccc2c(c1)O[C@@H](CN(C)C(=O)c1cccnc1)[C@H](C)CN([C@H](C)CO)S2(=O)=O | i |
| CCCC(=O)Nc1ccc2c(c1)OC[C@@H](C)N(Cc1ccccc1F)C[C@@H](C)[C@H](OC)CN(C)C2=O | i |
| COc1ccc([Si](C)(C)[C@@H]2[C@@H](CCn3cc([C@H](O)c4ccccc4)nn3)O[C@]3(C(=O)N(Cc4cccc(N5CCC5=O)c4)c4ccccc43)[C@H]2C)cc1 | i |
| COc1ccc(OC)c(NC(=O)CSc2nc(N)c(-c3ccccc3)c(=O)[nH]2)c1 | i |
| COc1ccccc1-c1cnc2c(c1)C(=O)N([C@H](C)CO)C[C@@H](C)[C@@H](CN(C)C(=O)c1ccncc1)O2 | i |
| CN(C)CCCNC(=O)C[C@@H]1CC[C@@H](NC(=O)Cc2cccnc2)[C@H](CO)O1 | i |
| NC(=O)[C@@H]1[C@H]2C(=O)O[C@H](c3ccccc3)[C@H](c3ccccc3)N2[C@H](c2ccccc2OCCO)[C@@]12C(=O)Nc1ccccc12 | i |
| C=C1C(=O)O[C@H]2C1CC[C@@](C)(O)[C@@H]1C[C@H](O)C(=C)[C@@H]12 (stereo partly drawn) | i |
| C[C@@H]1CN([C@@H](C)CO)S(=O)(=O)c2ccc(-c3ccncc3)cc2O[C@@H]1CN(C)C(=O)c1cccc(F)c1 | i |
| C[C@H](CO)N1C[C@H](C)[C@@H](CN(C)Cc2ccncc2)Oc2ncc(C#CC3CCCC3)cc2C1=O | i |
| CS(=O)(=O)CCC(C(=O)N1CCOCC1)N1C(=O)c2ccc(Br)cc2C1=O (stereo not drawn) | i |
| C[C@@H]1CN([C@H](C)CO)S(=O)(=O)c2ccc(C#CC(C)(C)O)cc2O[C@H]1CN(C)Cc1ccncc1 | i |
| O=[N+]([O-])c1cccc(NC(=S)NCCn2cc(Br)cn2)c1 | i |
| C[C@@H]1CN([C@H](C)CO)C(=O)c2cc(-c3ccncc3)cnc2O[C@H]1CN(C)C(=O)c1cccc(F)c1 | i |
| O=C1C(=O)N(CCCN2CCOCC2)C(c2cccnc2)C1C(=O)c1cc2ccccc2o1 (stereo not drawn) | i |
| COC(=O)c1cccc(NC(=O)COc2ccc([N+](=O)[O-])cc2)c1 | i |
| O=C(O)CCC(=O)Cc1ccccc1 | i |
| COc1ccccc1NC(=O)N(C)C[C@@H]1Oc2cc(Br)ccc2S(=O)(=O)N([C@H](C)CO)C[C@H]1C | i |
| C[C@@H]1CN([C@H](C)CO)C(=O)c2cc(-c3ccccc3F)cnc2O[C@@H]1CN(C)Cc1cccc(F)c1 | i |
| C[C@@H]1CN([C@@H](C)CO)C(=O)c2cc(-c3ccc(C#N)cc3)cnc2O[C@H]1CN(C)CC1CCCCC1 | i |
| COc1ccc(-c2nc(SCC(=O)Nc3cccc(F)c3)n[nH]2)cc1 | i |
| Cc1ccc(N(CC(=O)Nc2ccc(Br)cc2F)S(C)(=O)=O)cc1C | i |
| C[C@H](CO)N1C[C@H](C)[C@@H](CN(C)Cc2cncnc2)Oc2cc(C#CC3CCCC3)ccc2S1(=O)=O | i |
| COc1ccc(NC(=O)COc2ccccc2[N+](=O)[O-])cc1Cl | i |
| CC(=O)c1cccc(NC(=O)COc2ccccc2C(=O)Nc2ccc3c(c2)oc2ccccc23)c1 | i |
| O=C(C[C@@H]1C[C@H]2c3cc(NC(=O)Nc4ccc(C(F)(F)F)cc4)ccc3O[C@H]2[C@H](CO)O1)NCc1ccc2c(c1)OCO2 | i |
| O=C(C[C@@H]1C=C[C@@H](NC(=O)C2CC2)[C@H](CO)O1)NCc1ccncc1 | i |
| Cc1ccccc1OCC(=O)NC(=S)Nc1ccccc1N1CCN(S(C)(=O)=O)CC1 | i |
| Cc1ccc(C(C)C)c(OC(=O)CS(=O)c2ccc(C(F)(F)F)cc2[N+](=O)[O-])c1 (stereo not drawn) | i |
| C[C@H]1CN([C@@H](C)CO)C(=O)c2cc(-c3cccc(F)c3)cnc2O[C@H]1CN(C)Cc1cccc(F)c1 | i |
| COC(=O)c1cc(O)c(C(=O)c2c(O)cccc2C(=O)O)c(O)c1 | i |
| COC(=O)c1ccccc1NC(=O)c1ccc(NC(=O)CSc2ccccc2)cc1 | i |
| C[C@H](CO)N1C[C@H](C)[C@@H](CN(C)Cc2cccc(F)c2)Oc2ncc(C#C[C@@H](C)O)cc2C1=O | i |
| Cc1ccnc(SCC(=O)Nc2cccc3ccccc23)n1 | i |
| O=C(CCn1cnc2ccccc2c1=O)Nc1cccc(C(=O)c2ccccc2)c1 | i |
| CN(CC(=O)Nc1ccccc1-c1ccccc1)S(=O)(=O)c1ccc2ccccc2c1 | i |
| C[C@@H]1CN([C@H](C)CO)C(=O)c2ccccc2-c2ccccc2CO[C@@H]1CN(C)C(=O)Nc1ccnc(N2CCOCC2)c1 | i |
| O=C(NC1CCN(Cc2ccccc2)CC1)c1ccc(NS(=O)(=O)c2cccs2)cc1 | + |
| CCOC(=O)c1ccc(NC(=O)CSc2nc(C)cc(C(F)(F)F)n2)cc1 | i |
| C=CCN1C(=O)[C@@]2(O[C@@H](CCO)[C@H]([Si](C)(C)c3ccc(OC)cc3)[C@H]2C)c2cc(N3CCCCC3=O)ccc21 | i |
| COc1cccc(NC(=O)N[C@H]2CC[C@@H](CC(=O)Nc3ccc(-c4ccccc4)cc3)O[C@@H]2CO)c1 | i |
| Cc1ccccc1-c1cnc2c(c1)C(=O)N([C@@H](C)CO)C[C@H](C)[C@@H](CN(C)Cc1ccccc1F)O2 | i |
| Cc1cc(Cl)ccc1OCC(=O)Nc1ccccc1-c1nc2ccccc2s1 | i |
| Cc1ccc(C)c(OCC(=O)Nc2c[nH]c(=O)[nH]c2=O)c1 | i |
| O=C(Nc1cccc2cccnc12)c1ccccc1S(=O)(=O)c1ccc([N+](=O)[O-])cc1 | i |
| C[C@@H]1CN([C@H](C)CO)C(=O)c2cc(Br)cnc2O[C@H]1CN(C)C(=O)c1ccccc1F | i |
| COc1cc(C(=O)Nc2sc3c(c2C(=O)NCc2ccco2)CCCC3)cc(OC)c1OC | i |
| NC(=O)c1c(NC(=O)Cn2c(=O)oc3ccccc32)sc2c1CCCC2 | i |
| COC(=O)c1c(N)c(C#N)c2n1CCC2 | i |

(list continues)
| mol | ID4 SMM |
| --- | --- |
| CN(C)S(=O)(=O)N(CC(=O)Nc1c(F)cccc1F)c1ccccc1 | i |
| CN1CCN(C(=O)C[C@@H]2CC[C@H](NS(=O)(=O)c3cccc(F)c3)[C@H](CO)O2)CC1 | i |
| Cc1cc(N(CC(=O)Nc2ccccc2C(=O)N2CCOCC2)S(C)(=O)=O)ccc1Br | i |
| COC(=O)C[C@@H]1C[C@H]2c3cc(NC(=O)NC4CCCC4)ccc3O[C@H]2[C@H](CO)O1 | i |
| C/C=C/c1ccc2c(c1)O[C@H](CN(C)CC1CCCC1)[C@@H](C)CN([C@H](C)CO)S2(=O)=O | i |
| Cn1c(CN2CCCC2)nc2cc(NC(=O)COc3ccc(Cl)cc3)ccc21 | i |
| O=C1O[C@@H](c2ccccc2)[C@@H](c2ccccc2)N2[C@@H](c3ccccc3OCCO)[C@]3(C(=O)Nc4ccc(C#CCCO)cc43)[C@@H](C(=O)N3CCN(c4ncccn4)CC3)[C@H]12 | i |
| CCCCn1c(NCc2ccc(OC)cc2O)nc2ccccc21 | i |
| C[C@H](CO)N1C[C@H](C)[C@H](CN(C)C)Oc2ncc(-c3cc4ccccc4o3)cc2C1=O | i |
| CN(C)c1nc(OCC(=O)NC(C)(C)C)nc(N(C)C)n1 | i |
| O=C(COc1ccc2ccccc2c1Br)NCc1ccccn1 | i |
| C[C@H]1CN([C@@H](C)CO)C(=O)c2cc(-c3ccc(F)cc3)cnc2O[C@@H]1CN(C)Cc1ccccn1 | i |
| C/C=C/[C@H](CCn1cc([C@H](O)c2ccccc2)nn1)[Si](C)(C)c1ccc(OC)cc1 | i |
| C[C@@H]1CN([C@H](C)CO)C(=O)c2cc(Br)cnc2O[C@H]1CN(C)C(=O)Cc1ccccc1 | i |
| O=C(Cn1cnc2scc(-c3cccc([N+](=O)[O-])c3)c2c1=O)Nc1cccc(C(F)(F)F)c1 | i |
| C=CCn1c(SCC(=O)c2c(C)[nH]c3ccccc23)nc2sc3c(c2c1=O)CCC3 | i |
| Cc1cc(NS(=O)(=O)c2ccc(NC(=O)NC(C)(C(F)(F)F)C(F)(F)F)cc2)no1 | i |
| COc1ccc(OC)c(NC(=O)CSc2nnc(-c3cccnc3)s2)c1 | i |
| CCC(=O)N(C)C[C@H]1Oc2ncc(C#Cc3ccccc3)cc2C(=O)N([C@H](C)CO)C[C@@H]1C | i |
| Cc1ccccc1-c1cnc2c(c1)C(=O)N([C@@H](C)CO)C[C@@H](C)[C@@H](CN(C)CC1CC1)O2 | i |

Some of the entries above, set out differently.
CCC(=O)N(C)C[C@H]1Oc2ncc(C#Cc3ccccc3)cc2C(=O)N([C@H](C)CO)C[C@@H]1C
  ID4 SMM: i
Cc1ccccc1-c1cnc2c(c1)C(=O)N([C@@H](C)CO)C[C@@H](C)[C@@H](CN(C)CC1CC1)O2
  ID4 SMM: i

(further entries)
| mol | ID4 SMM |
| --- | --- |
| COc1cccc(C(=O)c2oc3ccccc3c2NC(=O)CCc2ccccc2)c1 | i |
| CCOC(=O)C(C)Sc1nnc2c3ccccc3n(C)c2n1 (stereo not drawn) | i |
| C[C@@H]1CN([C@@H](C)CO)C(=O)c2cc(C3=CCCCC3)cnc2O[C@H]1CN(C)Cc1cccnc1 | i |
| COCC(=O)Nc1ccc2c(c1)C(=O)N(C)C[C@@H](OC)[C@H](C)CN(CC1CC1)[C@H](C)CO2 | i |
| C[C@H](CO)N1C[C@H](C)[C@H](CN(C)C)Oc2ncc(-c3cccc(C#N)c3)cc2C1=O | i |
| COc1cc(NC(=O)CS(=O)(=O)c2ccc(C)cc2)cc(OC)c1OC | i |
| O=C(Cn1cnc2ccccc2c1=O)Nc1cccc(C(=O)c2ccccc2)c1 | i |
| C[C@@H]1CN([C@H](C)CO)C(=O)c2cc(-c3ccccc3)cnc2O[C@@H]1CN(C)Cc1ccccc1 | i |
| O=C(COc1ccccc1[N+](=O)[O-])Nc1ccc2oc(-c3cccc(Br)c3)nc2c1 | i |
| O=C(CCn1cnc2ccccc2c1=O)Nc1ccccc1Br | i |

Gathered by group, the compounds so far with a CF3 group (5)
| mol | ID4 SMM |
| --- | --- |
| O=C(C[C@@H]1C[C@H]2c3cc(NC(=O)Nc4ccc(C(F)(F)F)cc4)ccc3O[C@H]2[C@H](CO)O1)NCc1ccc2c(c1)OCO2 | i |
| Cc1ccc(C(C)C)c(OC(=O)CS(=O)c2ccc(C(F)(F)F)cc2[N+](=O)[O-])c1 (stereo not drawn) | i |
| CCOC(=O)c1ccc(NC(=O)CSc2nc(C)cc(C(F)(F)F)n2)cc1 | i |
| O=C(Cn1cnc2scc(-c3cccc([N+](=O)[O-])c3)c2c1=O)Nc1cccc(C(F)(F)F)c1 | i |
| Cc1cc(NS(=O)(=O)c2ccc(NC(=O)NC(C)(C(F)(F)F)C(F)(F)F)cc2)no1 | i |

(continued)
| mol | ID4 SMM |
| --- | --- |
| CC(NS(=O)(=O)c1ccc(Br)cc1)C(=O)Nc1cccc(F)c1 (stereo not drawn) | i |
| CCCN(C)C[C@H]1Oc2ncc(Br)cc2C(=O)N([C@@H](C)CO)C[C@H]1C | i |
| O=C(COc1ccc2ccccc2c1Br)Nc1ccccc1C(=O)NC1CCCCC1 | i |
| COc1ccccc1CNC(=O)C[C@@H]1C[C@H]2c3cc(N(C)C)ccc3O[C@H]2[C@H](CO)O1 | i |
| COC(=O)c1ccccc1NC(=O)CSc1nnc(-c2ccc(C)cc2)o1 | i |
| O=C(c1ccccc1)N1Cc2ccccc2[C@H]2OC(c3ccc(OCCCO)cc3)=N[C@@]2(Cc2ccccc2)C1=O | i |
| C[C@H](CO)N1C[C@H](C)[C@H](CN(C)S(=O)(=O)c2cccc(F)c2)OCc2ccccc2-c2ccccc2C1=O | i |
| COC(=O)c1ccc(Cl)c(NC(=O)CSc2nnc(-c3cc(OC)cc(OC)c3)o2)c1 | i |
| CC1CCN(C(=O)c2ccc3c(=O)nc4c(-c5ccccc5)n[nH]n4c3c2)CC1 | i |
| CCOC(=O)C1=C(C)NC(C)=C(C(=O)OC)C1c1cccc([N+](=O)[O-])c1 (stereo not drawn) | i |
| O=C(COc1ccc2ccccc2c1Br)NCc1cccnc1 | i |
| CC(=O)Nc1ccc(NC(=O)CN(c2ccc(Br)c(C)c2)S(C)(=O)=O)cc1 | i |
| Cc1cc(C)c(NC(=O)CSc2nnc(-c3ccncc3)n2C)c([N+](=O)[O-])c1 | i |
| COc1ccc(-c2nnc(SCC(=O)c3cccc([N+](=O)[O-])c3)n2C)cc1 | i |

Only part of the results is shown (hit frequency here may not be typical).
